High-throughput results (PubChem)
Anaer choline gr – growth inhibitors of anaerobic choline-fed gram-negatives, minimal medium, absorbance | Gram-negative bacterium anaerobic choline minimal medium; active compounds read low; many inactives read as strong as hits in the columns shown | calls only | 55,000 tested, 0.2% active;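 active = growth z-score on choline under -2 at 7 or 20 h with little or no fall on glycerol, limits in tiers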;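 note: stock transfer was 300 nL into about 50 µL; the organism is E. coli; final concentration not given here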
Anaer choline gr early – second read-out of Anaer choline gr, no call of its own (marks repeat the call); z-score; measured here: choline growth z-score, timepoint 1;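 score of optical density at 7 h as mean of two plates; lower means less growth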
* marks the source's active call; other numbers are inactive results; i = inactive; & = joins results of further samples.

The first four entries (preview)
Every second line gives: Anaer choline gr | Anaer choline gr early
CCC12CN3CC(CC)(CN(C1)C3c1ccc(O)cc1)C2O (stereo unspecified)
 : i | -1.6
CCOc1ccc(-c2noc(CSc3nc4cc5c(cc4c(=O)n3C(C)C)OCO5)n2)cc1
 : i | 1.8
CN(Cc1ccccc1)C(=O)c1ccc(-c2cc(N3CCOCC3)ncn2)cc1
 : i | 0.1
COc1ccccc1CNC(=O)Cc1csc2nc(-c3ccccc3)cn12
 : i | -1.3

The whole of this part, from the first entry:
Every second line gives: Anaer choline gr | Anaer choline gr early
CCC12CN3CC(CC)(CN(C1)C3c1ccc(O)cc1)C2O (stereo unspecified)
 : i | -1.6
CCOc1ccc(-c2noc(CSc3nc4cc5c(cc4c(=O)n3C(C)C)OCO5)n2)cc1
 : i | 1.8
CN(Cc1ccccc1)C(=O)c1ccc(-c2cc(N3CCOCC3)ncn2)cc1
 : i | 0.1
COc1ccccc1CNC(=O)Cc1csc2nc(-c3ccccc3)cn12
 : i | -1.3
O=C(NCCC1=CCCCC1)c1cnc2sc3c(n2c1=O)CCCCCC3
 : i | -0.68
COc1ccccc1Oc1ccnc(-c2ccc(C(=O)Nc3ccc(C)c(C)c3)cc2)n1
 : i | 0.33
CCc1nc2ccccc2n1CC(O)COc1cccc(C)c1 (stereo unspecified)
 : i | -0.43
CCc1ccc(CNc2nc3nc(CN4CCCC4)cc(=O)n3[nH]2)cc1
 : i | -0.85
CCCCCCCCCCC(C)(C)C(=O)Nc1c(OC)cc(OC)cc1OC
 : i | 0.41&1
CN1C(=O)C2(CCN(C(=O)C3CCCC3)C2)c2ccccc21 (stereo unspecified)
 : i | 0.24
Cc1ccccc1C1C2=C(CC(c3ccc(O)cc3)CC2=O)Nc2onc(C)c21 (stereo unspecified)
 : i | 0.51
CC1CCCC(C)N1C(=O)c1cc(C2CC2)on1 (stereo unspecified)
 : i | -1.1
COc1cccc(NC(=O)N2CCCC(c3nnc(C(=O)Nc4ccc(F)cc4)s3)C2)c1 (stereo unspecified)
 : i | -0.76
O=C(NC1CC1)c1cnc2sccn2c1=O
 : i | -1.1
CCc1cc2c(N3CCCC(C(=O)NC4CCCC4)C3)ncnc2s1 (stereo unspecified)
 : i | -0.7

Given as labelled records: 2 of the compounds above.
COc1ccccc1CNC(=O)Cc1csc2nc(-c3ccccc3)cn12
- Anaer choline gr = i
- Anaer choline gr early = -1.3

O=C(NCCC1=CCCCC1)c1cnc2sc3c(n2c1=O)CCCCCC3
- Anaer choline gr = i
- Anaer choline gr early = -0.68

Next records follow.
Every second line gives: Anaer choline gr | Anaer choline gr early
COc1ccc(N2C(=O)c3cc4ccsc4n3CC2(C)C(=O)NC2CCCC2)c(OC)c1 (stereo unspecified)
 : i | 0.94
CC1(C)C(=O)N(CC(=O)N2CCN(c3ccccn3)CC2)c2ccccc21
 : i | -1.1
CCOc1ccc(-n2nnnc2CNC(=O)Nc2ccc(OC)c(OC)c2)cc1
 : i | -0.13
COc1ccc(CN2CN=C(Nc3nc(C)c4cc(OC)ccc4n3)NC2)cc1
 : i | -0.13
Cc1ccc(-c2noc(-c3ccccc3OCC(=O)Nc3nc(C(C)C)cs3)n2)cc1
 : i | -0.74
O=C(Nc1ccccc1SCc1nnc(-c2ccccc2)o1)c1cccc(F)c1
 : i | 0.79
O=C(Cn1nc(C(=O)Nc2ccccc2)ccc1=O)NC1CCCCC1
 : i | 0.13
Cc1nn(-c2ccccc2)c(C)c1CCc1nnc2sc(-c3ccc(F)cc3)nn12
 : i | 0.15
CC(=O)N1c2ccc(S(=O)(=O)N3CCC(C(=O)N4CCN(C)CC4)CC3)cc2CC1C (stereo unspecified)
 : i | -0.95
CN(C)c1nc2ncn3c(=O)n(CC(=O)Nc4cccc(Cl)c4)nc3c2s1
 : i | -0.52
O=C1Nc2ccc(Br)cc2C1Cc1ccccc1 (stereo unspecified)
 : i | -1.8
Cc1ccc(-c2noc3ncnc(N(CCN(C)C)Cc4ccccc4)c23)cc1
 : i | 0.59
COc1ccc(CC(=O)N2CCN(S(=O)(=O)c3ccc4c(c3)NC(=O)CO4)CC2)cc1
 : i | 0.45
Cc1ccccc1-c1nn2c(=O)cc(CN3CCN(C(=O)c4ccc5c(c4)OCO5)CC3)nc2s1
 : i | -0.18
O=C[C@@H]1CCCN1C(=O)[C@@H]1CCCN1C(=O)OCc1ccccc1
 : i | 0.05

Next section
Every second line gives: Anaer choline gr | Anaer choline gr early
CCc1nnc(NC(=O)CSc2ccc3nnc(-c4ccncc4)n3n2)s1
 : i | 0.36
CC1=C(c2ccc(Cl)cc2)S(=O)(=O)NC1=NC1CCN(Cc2ccccc2)CC1
 : i | 0.73
CCOc1ccccc1CN1CCc2nc(Nc3cccc(OC)c3)ncc2C1
 : i | 0.06
CCN(CC)S(=O)(=O)c1ccc2c(c1)nc(CN(C)C(=O)Nc1ccc(C)c(Cl)c1)n2C
 : i | 0.29
O=C(c1ccc(N2C(=O)CCS2(=O)=O)cc1)N1CCOCC1
 : i | -0.83
CC(Oc1ccc(F)cc1)C(=O)Oc1cccc(-n2cnnn2)c1 (stereo unspecified)
 : i | 0.58
COc1ccc(CN2CCCC2c2c(C)noc2C)cc1OC (stereo unspecified)
 : i | -0.26
CCCC(=O)C1=C(c2ccc(Br)cc2)N(C(=O)CCC)n2cnnc2S1
 : i | -0.48
CN[C@@H]1[C@H](O[C@H]2[C@H](O[C@@H]3[C@@H](O)[C@H](O)[C@@H](N=C(N)N)[C@H](O)[C@H]3N=C(N)N)O[C@@H](C)[C@]2(O)C=O)O[C@@H](CO)[C@H](O)[C@H]1O
 : i | -0.55&-0.37
COc1ccc2c(c1)C(=O)N(CCc1ccc(S(=O)(=O)NC(=O)NC3CCCCC3)cc1)C(=O)C2(C)C
 : i | -0.04&-0.22
NC(=O)N1c2ccccc2C=Cc2ccccc21
 : i | 0.51&-1&-0.34
CN(C)c1ccc(C(CNS(C)(=O)=O)N2CCN(c3ccccc3)CC2)cc1 (stereo unspecified)
 : i | -0.09
CCn1nc(C)c2c1c(=O)n(Cc1ccccc1)c(=O)n2Cc1ccc(C)cc1
 : i | 1.6
COc1ccc(NC(=O)CCc2c(C)nn(-c3cc(N4CCCC4)ncn3)c2C)cc1OC
 : i | 0.95
CC1CCCN(CC2CCN(S(=O)(=O)c3ccc4c(c3)CCC4)CC2)C1 (stereo unspecified)
 : i | -0.99

Complete entries as entered above.
CC1=C(c2ccc(Cl)cc2)S(=O)(=O)NC1=NC1CCN(Cc2ccccc2)CC1 in the list: Anaer choline gr: i; Anaer choline gr early: 0.73
CN(C)c1ccc(C(CNS(C)(=O)=O)N2CCN(c3ccccc3)CC2)cc1 (stereo unspecified) in the list: Anaer choline gr: i; Anaer choline gr early: -0.09

(next part)
Every second line gives: Anaer choline gr | Anaer choline gr early
Clc1ccc(C(Nc2ccc(Br)cc2)c2nnc(-c3ccccc3)o2)cc1 (stereo unspecified)
 : i | 1.6
CC(C)(NC(=O)C1CCCO1)c1nc2c(c(C(N)=O)n1)OCO2 (stereo unspecified)
 : i | -0.21
Cc1nc(-c2cc(S(=O)(=O)NCC(C)c3ccccc3)c(C)s2)sc1C (stereo unspecified)
 : i | 0.99
CCc1nc(SCC(=O)N2CCOCC2)c2c(=O)n(C)c(=O)n(C)c2n1
 : i | -0.19
Cc1ccc(-c2noc(C3CCCN3S(=O)(=O)c3ccc4c(c3)CCCC4)n2)cc1 (stereo unspecified)
 : i | 0.39
O=S1(=O)CCC(S(=O)(=O)N2CCN(Cc3ccc4c(c3)OCO4)CC2)C1 (stereo unspecified)
 : i | -0.39
COc1cccc(C2C(C(=O)Nc3ccccc3)=C(C)Nc3c(C(=O)Nc4ccccc4)cnn32)c1OC (stereo unspecified)
 : i | -0.32
Cc1cc(C)c(NC(=O)Nc2ccc3c(c2)N(C)C(=O)CS3)c(C)c1
 : i | 0.69
CC(C)OCCCNC(=O)CCc1nnc2n(C)c(=O)c3sccc3n12
 : i | 0.07
Cc1csc(NC(=O)C2CCCN2S(=O)(=O)c2cccc3nsnc23)n1 (stereo unspecified)
 : i | 0.11
O=C(c1ccccc1Br)N1CCC(c2nc(-c3ccccc3)no2)CC1
 : i | -0.34
CCCC(=O)N1CC(C)C(=O)Nc2ccccc21 (stereo unspecified)
 : i | -0.54
COc1ccc(S(=O)(=O)Nc2noc3ccccc23)cc1
 : i | -0.37
Cc1c(C)n(-c2ccccc2)c2ncn(CCC(=O)N3CCOCC3)c(=O)c12
 : i | -0.39
O=C(C1CCN(c2nc3ccc(Cl)cc3[nH]2)CC1)N1CCN(C2CCCCC2)CC1
 : i | -1.3

Going on with the list.
Every second line gives: Anaer choline gr | Anaer choline gr early
O=C(NCCCN1CCOCC1)c1ccc2c(c1)N(CC(=O)N1CCCC1)C(=O)CO2
 : i | -0.14
CCn1c(C(=O)N2CCC(C(=O)NCCc3ccc(Cl)cc3)CC2)cc2occc21
 : i | -0.86
O=C(Nc1ccc(OCc2cc(=O)n3[nH]cnc3n2)cc1)c1ccccc1Cl
 : i | -0.88
CCCCn1c(SCC(=O)NCC2CCCO2)nc2c(sc3ccccc32)c1=O (stereo unspecified)
 : i | 0.05
O=C(Nc1ccc(F)c(F)c1)c1cc2ccccn2n1
 : i | -0.25
O=C(NC1CCCC1)c1ccn[nH]1
 : i | -0.49
CCCS(=O)(=O)N1CCCC(c2n[nH]c(=O)n2-c2ccccc2)C1 (stereo unspecified)
 : i | 1.4
CC1CCCN(c2nc3ncnc(SCC(=O)NC4CCCCC4)c3s2)C1 (stereo unspecified)
 : i | -2.2
Cc1nc(Nc2ccc(F)cc2)[nH]c(=O)c1Br
 : i | 0.35
COc1cc2nc(N3CCCN(C)CC3)nc(NC3CCN(Cc4ccccc4)CC3)c2cc1OC
 : i | 0.44&-1.5
O=c1[nH]cnc2c1nc(SCc1cc(=O)n3ccccc3n1)n2-c1ccccc1
 : i | -0.55
Fc1ccc(-c2noc(Cn3ccnc3)n2)cc1Br
 : i | -0.24
CC(C)c1cc(C2CCCN2C(=O)Nc2ccc3c(c2)OCCO3)no1 (stereo unspecified)
 : i | -0.42
CC(SC1=Nc2ccccc2C2=NC(C(C)C)C(=O)N12)C(=O)Nc1ccccc1 (stereo unspecified)
 : i | -0.25
CCn1cc(CN2CCC(C(=O)NC(C)(C)C)CC2)c2cc(OC)ccc21
 : i | -0.08

Following part:
Every second line gives: Anaer choline gr | Anaer choline gr early
Cc1nc(-c2cccc(-c3noc(-c4ccc5c(c4)OCO5)n3)c2)cs1
 : i | 1.4
CC(C)c1ccc(S(=O)(=O)Nc2ccc(-c3nnc(-c4ccccc4)o3)cc2)cc1
 : i | -1.1
O=C(c1ccc2ccnc(N3CCN(c4ccc(F)cc4)CC3)c2c1)N1CCCCC1
 : i | -0.06
CN1C(=O)COc2ccc(-c3csc(NC(=O)C4CCCCC4)n3)cc21
 : i | -0.18
C=CCNc1ncccc1-c1nc(-c2ccc(Cl)cc2)no1
 : i | -0.23
COc1cc2c(cc1OC)C(C)N(C(=O)c1noc3c1CCc1sccc1-3)CC2 (stereo unspecified)
 : i | 0.88
O=C(c1nnc(-c2csc(S(=O)(=O)N3CCCC3)c2)o1)N1CCCC1
 : i | -0.09
O=C(Nc1ccc2c(c1)OCCO2)C1CCCN(c2ccnc(-c3ccc(F)cc3)n2)C1 (stereo unspecified)
 : i | 1.6
COC(=O)c1ccc(NC(=O)C2=Cc3ccc(C)cc3OC=C2)cc1
 : i | 0.85
CCc1ccc(C2=C(C)C(N3CCCN(C(=O)C(C)(C)C)CC3)=NS2(=O)=O)cc1
 : i | 0.99
COc1cccc(C(Nc2nc(C)cc(C)n2)c2c(NC(=O)c3ccccc3)sc3c2CCCC3)c1 (stereo unspecified)
 : i | 0.99
Cc1cc(F)ccc1NC(=O)c1[nH]c(C)c(S(=O)(=O)N2CCCC2)c1C
 : i | 0.48
c1ccc(-c2noc(-c3ccc(Nc4ccc5c(c4)OCO5)nn3)n2)cc1
 : i | 2
O=C(Cc1ccsc1)N1CCCC(c2nc3c(nnn3Cc3cccc(F)c3)c(=O)[nH]2)C1 (stereo unspecified)
 : i | -0.8
COc1ccc(-c2cc3c(=O)n(CC(=O)N4CCN(C5CCCCC5)CC4)ncn3n2)cc1
 : i | 0.4

Next compounds follow.
Every second line gives: Anaer choline gr | Anaer choline gr early
Cc1cc(C(Nc2ccccn2)c2ccsc2)c(NC(=O)c2ccccc2)s1 (stereo unspecified)
 : i | -0.47
Cc1cc(F)ccc1NC(=O)CCc1nc(CSc2nc3ccccc3s2)no1
 : i | -0.56
O=c1[nH]ccn(-c2ccc(Cl)cc2)c1=O
 : i | -0.22
COC(=O)c1cc(C(=O)Nc2cccc(C(=O)O)c2)c(=O)[nH]c1C
 : i | -0.18
NC(N)=Nc1ccc(Cl)cc1
 : i | 0.38
COCC(=O)N1Cc2c(sc3c2CCCC3)-n2cccc2C1c1cccc(C)c1 (stereo unspecified)
 : i | -0.66
COc1ccc(-c2ccc(CNCC3CCNCC3)o2)cc1Cl
 : i | -0.13
COc1ccc(S(=O)(=O)N2CCN=C2N2CCN(c3cccc(Cl)c3)CC2)cc1OC
 : i | -0.59
Cc1cc(C)c(S(=O)(=O)Nc2cc3[nH]c(=O)[nH]c3cc2Cl)cc1C
 : i | 0.61
Cc1csc(-c2cc(S(=O)(=O)N3CC=C(c4ccccc4)CC3)c(C)s2)n1
 : i | 0.76
O=C(NCc1ccccn1)c1nc(N2CCOCC2)c2oc3ccccc3c2n1
 : i | -0.29
CC(=O)Oc1ccccc1C(=O)OC1=C(C(=O)c2ccccc2)N(C)S(=O)(=O)c2ccccc21
 : i | 0.63
CC(=O)Nc1ccc(C)cc1-c1nnc(SC(C)C(=O)Nc2c(C)cc(C)cc2C)[nH]c1=O (stereo unspecified)
 : i | 0.02
Cc1ccc(-c2nn3c(=O)cc(CN4CCN(C(=O)Nc5cc(F)ccc5F)CC4)nc3s2)cc1
 : i | -0.5
CC(C)CNC(=O)c1ccc(-c2nc3ccccc3n(CC(C)C)c2=O)cc1
 : i | 1.1
CCS(=O)(=O)c1ccc(-c2ccc(NC(=O)C3CCCC3)cc2)nn1
 : i | 0.73
CCCCCCn1c(=O)c2c(nc3n2CCS3)n(C)c1=O
 : i | -0.26

A portion of the library; count on the stated rates, not on these rows.
